# Screening data (PubChem)
# KCNQ2 enhance = KCNQ2 (rat) channel potentiation; O88943; CHO-K1 KCNQ2, FluxOR thallium flux fluorescence; active compounds read high; B-score at 10 µM; 0.54% of 310,000 active;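 active = fluorescence ratio B-score at least 3 SD of library B-scores, with initial fluorescence B-score within 3 SD, cut at about 5.3 in these data; same plate scores as AID 2156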;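 note: B-score of peak minus minimum over baseline fluorescence ratio after K+ and Tl+ stimulus; positive B-score means potentiation of KCNQ2 with more thallium influx and brighter signal; only the inactives scoring about 0 or higher are listed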
# Target sequence (O88943 whole entry, looked up): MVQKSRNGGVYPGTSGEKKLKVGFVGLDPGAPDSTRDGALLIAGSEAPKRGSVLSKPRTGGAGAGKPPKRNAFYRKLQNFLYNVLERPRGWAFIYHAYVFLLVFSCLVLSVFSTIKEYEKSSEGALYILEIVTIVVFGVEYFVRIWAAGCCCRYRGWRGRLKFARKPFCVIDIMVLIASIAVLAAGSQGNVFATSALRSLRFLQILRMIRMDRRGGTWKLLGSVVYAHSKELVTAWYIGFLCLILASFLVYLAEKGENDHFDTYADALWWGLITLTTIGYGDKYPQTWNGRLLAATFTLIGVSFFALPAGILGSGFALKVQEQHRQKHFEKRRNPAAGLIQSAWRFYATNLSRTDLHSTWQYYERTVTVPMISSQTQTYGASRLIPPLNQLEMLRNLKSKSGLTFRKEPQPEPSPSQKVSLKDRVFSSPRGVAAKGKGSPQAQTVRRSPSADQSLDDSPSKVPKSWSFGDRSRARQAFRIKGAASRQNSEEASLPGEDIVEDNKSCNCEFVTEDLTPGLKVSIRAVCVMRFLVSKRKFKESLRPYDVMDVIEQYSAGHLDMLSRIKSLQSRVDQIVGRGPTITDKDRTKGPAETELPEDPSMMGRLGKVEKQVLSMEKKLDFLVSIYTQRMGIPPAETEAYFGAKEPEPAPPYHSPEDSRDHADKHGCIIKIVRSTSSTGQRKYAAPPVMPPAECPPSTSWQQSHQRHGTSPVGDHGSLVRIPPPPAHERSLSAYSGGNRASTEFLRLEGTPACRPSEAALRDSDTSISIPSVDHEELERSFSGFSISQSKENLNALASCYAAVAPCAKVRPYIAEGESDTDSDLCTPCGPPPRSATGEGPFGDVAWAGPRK
# KCNQ2 enhance baseline = second read-out of KCNQ2 enhance, no call of its own (marks repeat the call); B-score; compound at 10 µM; measured here: initial fluorescence intensity artifact check;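 brightness before thallium and not channel activity; 0 = typical well and far values either way flag optical interference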
# Numbers without * were called inactive. The list is partial; rates above refer to the full screens.
SMILES,KCNQ2 enhance,KCNQ2 enhance baseline
COC(=O)C1=C(N)Oc2cc(C)oc(=O)c2C1c1cccnc1 (stereo not given),0.44,-1.1
S=C(NCc1cccs1)Nc1ccccc1Cl,1.2,0.53
COc1ccccc1N1C(=NC(=O)C(C)Oc2ccccc2)SC2CS(=O)(=O)CC21 (stereo not given),1.1,-0.77
COCC(=O)Nc1ccccc1C(=O)NC(C)C,0.55,-0.01
Cc1nc(=O)c(-c2ccccc2)c(C)n1-c1ccccc1O,0.28,0.01
CN1/C(=C\C(=O)CSc2ncn[nH]2)C(C)(C)c2ccccc21,0.11,-0.03
Nc1nc2n(n1)C(c1ccco1)CC(c1ccc(Cl)cc1Cl)N2 (stereo not given),1.9,-0.07
COc1ccc(CCn2c(=N)c(S(=O)(=O)c3ccc(Cl)cc3)cc3c(=O)n4ccccc4nc32)cc1,0.36,0.05
CNS(=O)(=O)c1cn(CC(=O)NCc2ccc(OC)cc2)cc1S(=O)(=O)NC,1.6,-0.44
CCCCCCc1nc2ccccc2c(=O)n1N,0.45,-1.8
COc1ccccc1C=NC(CO)C(O)c1ccc([N+](=O)[O-])cc1 (stereo not given),0.38,-0.17
COC(=O)c1cccc(NC(=S)NCc2ccc(Cl)cc2)c1,2.2,0.02
CCCS(=O)(=O)N1CCN(S(=O)(=O)c2ccc(F)cc2)CC1,0.72,1.4
c1ccc(CSc2nnc(-c3cccnc3)o2)cc1,2.2,-0.97
CCCCCC(=O)Nc1cccc(C2=NOC3(C2)C[C@@H](C(N)=O)N(C(=O)C2(C)CC2)C3)c1 (stereo not given in full),0.16,0.09
O=C(NCc1cccs1)c1ccc2c(c1)OCCO2,0.72,0.41
CCOc1ccc(S(=O)(=O)N2CCN(C(=O)CN3C(=O)NC4(CCCC4)C3=O)CC2)cc1,2.1,0.11
CC(C)(C)c1ccc(OCCC(=O)OCC(=O)Nc2cccnc2Cl)cc1,0.35,0.02
Cc1cc(=O)[nH]c(SCC(=O)N2CCc3ccccc3C2)n1,1.1,0.52
CCOC(=O)Cn1c(=O)c(-c2ccccc2N)nc2ccccc21,1.1,1.2
CCOc1ccc(CCN2CN(CC)CNC2=S)cc1OCC,2.6,-0.32
COc1ccc(Cc2nnc(N/N=C/c3ccc(O)cc3)[nH]c2=O)cc1OC,1.3,-0.97
COc1ccc(CNCc2cc3c(cc2[N+](=O)[O-])OCO3)cc1,1.4,0.64
CC1CC(C)CN(CCCNC(=O)c2ccc3c(c2)ncn3C2CCCC2)C1 (stereo not given),0.16,-1.8
Cc1ccc(C)c(N2CCN(C(=O)c3ccc(Cn4c(=S)[nH]c5ccc(N6CCOCC6)cc5c4=O)cc3)CC2)c1,0.2,-0.34
c1ccc2oc(NC3=NCN(CC4CCCO4)CN3)nc2c1 (stereo not given),2.2,-1
CCOC(=O)c1cc(-c2ccc(F)cc2)n(CC(=O)N2CCCC2)c1C,1.3,0.09
COC(=O)c1ccc(Oc2coc3cc(OCc4ccc([N+](=O)[O-])cc4)ccc3c2=O)cc1,0.69,0.94
CC(=O)Nc1ccc(NC(=O)C(F)(F)F)cc1,0.23,0.99
CCN(CC)c1ccc(/C=N/NC(=O)Cc2nnc(NC(=O)Nc3ccccc3)s2)cc1,0.08,-1.8

# 14 structures out of the list, sorted by length of the SMILES, lowest first.
SMILES,KCNQ2 enhance,KCNQ2 enhance baseline
CCCCCCc1nc2ccccc2c(=O)n1N,0.45,-1.8
COCC(=O)Nc1ccccc1C(=O)NC(C)C,0.55,-0.01
CCOc1ccc(CCN2CN(CC)CNC2=S)cc1OCC,2.6,-0.32
COC(=O)c1cccc(NC(=S)NCc2ccc(Cl)cc2)c1,2.2,0.02
CCOC(=O)Cn1c(=O)c(-c2ccccc2N)nc2ccccc21,1.1,1.2
COC(=O)C1=C(N)Oc2cc(C)oc(=O)c2C1c1cccnc1 (stereo not given),0.44,-1.1
Nc1nc2n(n1)C(c1ccco1)CC(c1ccc(Cl)cc1Cl)N2 (stereo not given),1.9,-0.07
COc1ccc(CNCc2cc3c(cc2[N+](=O)[O-])OCO3)cc1,1.4,0.64
CC1CC(C)CN(CCCNC(=O)c2ccc3c(c2)ncn3C2CCCC2)C1 (stereo not given),0.16,-1.8
COc1ccccc1N1C(=NC(=O)C(C)Oc2ccccc2)SC2CS(=O)(=O)CC21 (stereo not given),1.1,-0.77
CCN(CC)c1ccc(/C=N/NC(=O)Cc2nnc(NC(=O)Nc3ccccc3)s2)cc1,0.08,-1.8
CCOc1ccc(S(=O)(=O)N2CCN(C(=O)CN3C(=O)NC4(CCCC4)C3=O)CC2)cc1,2.1,0.11
CCCCCC(=O)Nc1cccc(C2=NOC3(C2)C[C@@H](C(N)=O)N(C(=O)C2(C)CC2)C3)c1 (stereo not given in full),0.16,0.09
Cc1ccc(C)c(N2CCN(C(=O)c3ccc(Cn4c(=S)[nH]c5ccc(N6CCOCC6)cc5c4=O)cc3)CC2)c1,0.2,-0.34

# Further results:
SMILES,KCNQ2 enhance,KCNQ2 enhance baseline
CCOc1ccc(OCCN(C)Cc2ccccc2)cc1,0.22,-0.79
CCCN(C(=O)CSc1nc2ccccc2n1CC)C1CCS(=O)(=O)C1 (stereo not given),0.76,0
COC(=O)[C@@]12CCCN1[C@H](c1ccc(-c3ccccc3)cc1)[C@@H]1C(=O)N(C)C(=O)[C@@H]12,0.43,0.16
CC(C)(C)c1ccc(C2(C)NC(=O)NC2=O)cc1 (stereo not given),0.97,0.08
COC(=O)C1C(=O)c2c([nH]c(C(=O)OCCSC)c2C)CC1C (stereo not given),0.76,1.2
CSc1ccccc1NC(=O)c1ccc(CN2CCOCC2)cc1,1.4,-0.22
CCOc1ccc(N2C(=O)CC(Sc3nc(CC(C)C)ccc3C#N)C2=O)cc1 (stereo not given),0.41,-1.4
COc1ccc(/C=C/c2c([N+](=O)[O-])c(=O)n(C)c(=O)n2C)cc1OC,0.52,1.2
COc1cc(NC(=O)c2ccc(NC3=NC4CS(=O)(=O)CC4S3)cc2)cc(OC)c1OC (stereo not given),0.82,-0.04
O=S(=O)(Nc1cccc(-c2ccc(N3CCOCC3)nn2)c1)c1cc(Cl)ccc1Cl,1.1,-0.55
Cc1coc2cc3oc(=O)c(CCC(=O)NC4CC4)c(C)c3cc12,1.6,0.35
C1=Nc2c(NCc3ccccc3)ncnc2Oc2ccccc21,0.23,0.9
Cc1ccccc1-c1nc2sc3c(c2c(=O)n1N)CCCC3,0.33,0.49
Cc1cc(N/N=C/c2c(O)ccc3ccccc23)nc(-c2ccccc2O)n1,0.43,-0.94
Cc1nn(C(C)CC(=O)O)c(C)c1Br (stereo not given),0.16,3.1
CCOC(=O)c1cnc2nc(C(F)(F)F)[nH]n2c1=O,0.72,0.24
C=CCc1cccc(/C=N/c2ncccc2O)c1O,0.89,-0.36
c1cncc(-c2nc3cc4ccccc4cc3[nH]2)c1,0.36,-0.31
CNC(=O)NC(=O)CSc1nnc(-c2ccc(F)cc2)n1CC1CCCO1 (stereo not given),1.1,-0.11
CCn1c(-c2cc(-c3cccc(OC)c3)nc3ccccc23)n[nH]c1=S,0.22,0.06
COc1ccc(S(=O)(=O)N2CCN(C(=O)c3cccc(Cl)c3)CC2)cc1,0.42,-2.7
COc1ccc(C(=O)Cn2c3ccccc3n3nc(CCC(=O)O)c(=O)nc23)cc1OC,0.84,1.7
CN(Cc1ccccc1)C1CCNCC1,0.43,0.28
Nc1cc(=O)[nH]c(SCCSc2cc(Cl)ccc2Cl)n1,1.6,0.01
CCCCSc1nnc(C)c(=O)[nH]1,0.8,-0.25
Nc1nonc1-n1nnc(C(=O)N/N=C/c2cccc(F)c2)c1CN1CCCCCC1,1,1.4
CCc1ccc2c(c1)cc(CN(C(=S)Nc1ccccc1Cl)C1CC1)c1nnnn12,0.88,0.9
CN(C)c1ccc(P(=O)(OCc2ccccc2)C(O)c2ccc(Br)cc2)cc1 (stereo not given),0.94,-1.2
Cc1ccnc(SCC(=O)N2CCN(C(c3ccccc3)c3ccccc3)CC2)n1,1.2,0.2
O=C(NCCc1ccccc1)C1CCCN1S(=O)(=O)c1cccc2nsnc12 (stereo not given),0.61,-0.01
Cc1cc(C)n(-c2ccc(N3CCOCC3)nn2)n1,1.5,1.3
COc1ccc(N=Cc2ccc[nH]2)cc1,0.45,-0.08
O=C1N=C(N2CCN(c3ccccc3)CC2)S/C1=C\c1ccco1,2.3,-1.2
CCS(=O)(=O)N1CCN(c2ccc(C(=O)NC34CC5CC(CC(C5)C3)C4)cc2[N+](=O)[O-])CC1,1.4,-2.1
COc1cccc2c1CCc1c-2nc2ccccc2c1C(=O)O,0.66,-0.86
CCOC(=O)N/N=C/C=C/c1ccccc1[N+](=O)[O-],1.6,-0.08
CC(C)(C)CC(=O)NCc1cccs1,0.02,-0.43
Cn1cccc1CC(=O)N/N=C/c1ccc(Cl)cc1,0.64,1.8
CS(=O)(=O)Nc1ccccc1C(=O)N1CCN(c2ccccc2)CC1,0.84,-0.75
CC(C)NC(=O)NC(=O)COC(=O)c1ccccc1F,0.87,-0.8

# Overlap with the part before: 2 compounds, then new ones.
SMILES,KCNQ2 enhance,KCNQ2 enhance baseline
CS(=O)(=O)Nc1ccccc1C(=O)N1CCN(c2ccccc2)CC1,0.84,-0.75
CC(C)NC(=O)NC(=O)COC(=O)c1ccccc1F,0.87,-0.8
CC(=O)c1cccc(NC(=O)N2C3CCCC2CC(NC(=O)C2CC2)C3)c1 (stereo not given),0.23,0.67
COC(=O)CCC(=O)c1ccc(OC)c(Cl)c1,0.02,0.64
Cn1cc(S(=O)(=O)NC2CCCCC2)c(=O)n(C)c1=O,0.04,1.7
CC1(C)CC(=O)C2=C(C1)N(Cc1ccccc1)C(=O)C2(NC(=O)C(C)(C)C)C(F)(F)F (stereo not given),1.1,-3
Fc1ccccc1CSc1nc2ccccc2[nH]1,0.02,0.04
C/C(=N\NC(=O)Cc1c[nH]c2ccccc12)c1ccc2ccccc2c1,1.3,0.01
NS(=O)(=O)c1cnccc1Nc1cccc(Br)c1,2.1,-0.4
CCc1nn2cc(-c3ccccc3)nc2s1,0.48,0.42
CC(C)CNC(CC(=O)O)c1ccccc1 (stereo not given),1.1,-1.4
FC(F)C(F)(F)c1cc(-c2ccc(Cl)cc2)n[nH]1,0.08,1.2
Cc1c(C(=O)Nc2c(N)nc(SCC(=O)NCC3CCCO3)[nH]c2=O)cccc1[N+](=O)[O-] (stereo not given),0.16,0.09
Cc1nn(C)cc1CN1CCC(n2nccc2NC(=O)CCCc2ccccc2)CC1,2.7,-0.94
CCNC(=S)N1CCn2cccc2C1c1ccc(F)cc1 (stereo not given),1.3,0.3
CN1CCN(NC(=O)c2cccc(Br)c2)CC1,0.98,-1.4
CC(=O)Nc1ccc(NC(=O)Cn2c(-c3ccc(F)cc3)cnc2SCC(=O)Nc2c(C)cccc2C)cc1,0.54,-0.24
CCC1=C(OC(=O)N(CC)CC)N2C(=O)OC(=NCC(=O)OC)[C@]2(Cc2ccccc2)[C@H]2C1=CC[C@H]1C(=O)N(CC(=O)OC)C(=O)[C@H]12,1.1,-2.5
CCOC(=O)c1ccc(Nc2cc(C)nc(-c3ccccc3O)n2)cc1,0.02,-0.27
COCC(=O)N1CCC(Oc2ccc(C(=O)N3CCCCCCC3)cc2)CC1,0.16,-0.53
COc1ccc(NC(=O)CCS(=O)(=O)c2ccc(OC)cc2)cc1,0.32,-0.33
Nc1nonc1-n1nnc(C(=O)N/N=C/c2ccc(Cl)cc2Cl)c1CN1CCCC1,0.19,0.31
CSCCC(=O)N1CCCC(N(C)CCc2ccccc2)C1 (stereo not given),0.53,-1.1
CCCNS(=O)(=O)c1ccc(OC)c(Cl)c1Cl,0.49,-0.69
Cc1ccc(-c2nc(CSc3nc4ccccc4c(=O)n3C)cs2)cc1,0.02,0.66
Cn1c2ccccc2c(=O)c2ccc(F)cc21,0.17,0.4
CCCC(=O)Nc1nnc(CCc2ccccc2)s1,0.79,-1.4
COc1ccc(-n2c(SCC(=O)NC3CCCCC3)nc3ccsc3c2=O)cc1,2.1,-0.77
CC(C)c1cc(CN2CCN(Cc3ccc(F)c(F)c3)C(CCO)C2)[nH]n1 (stereo not given),1.4,-2
Cc1nn(Cc2ccccc2)c(C)c1NC(=O)c1noc2c1CCc1ccccc1-2,0.62,0.04
COc1ccc(NC(=O)C2(c3ccc(NC(=O)c4ccc(C)cc4)cc3)CCCC2)cc1,1.7,-0.08
CCC1Oc2ccc(C)cc2N(CC(=O)NCc2cccs2)C1=O (stereo not given),2.7,-0.71
Cc1cccc(NC(=O)CSc2ccc(-c3ccc4c(c3)OCO4)nn2)c1C,0.22,-0.55
O=C(Oc1c(Cl)cc(Cl)c2cccnc12)c1cccs1,11*,-0.39*
Cc1ccc(-n2c3c(cc(C(=O)NC4CCSC4=O)c2=O)C(=O)CCC3)cc1 (stereo not given),0.06,0.9
Fc1ccc(NC(=S)NCCN2CCOCC2)c(F)c1F,0.64,-1.3
CCOC(=O)CNC(=O)c1c(C)nn(-c2ccccc2)c1Cl,0.71,0.58
Cc1cccc(-n2nnnc2SCC(=O)NCC2CCCO2)c1 (stereo not given),1,0.06
COc1ccc(NS(=O)(=O)c2cccc(C(=O)NNC(=O)CNC(=O)c3ccccc3F)c2)cc1,0.19,-1.5
Cn1c(N)c(C(=O)COC(=O)C2CC(=O)N(Cc3ccccc3)C2)c(=O)n(C)c1=O (stereo not given),0.23,1.4
CCOC(=O)c1cc(C(=O)Nc2sc3c(c2C#N)CCCC3)nn1C,2.8,-1
COC(=O)c1ccc2c(=O)[nH]c(CSc3nc(C)cs3)nc2c1,1.7,1.3
CC12CCC(O)CC1=CCC1C2CCC2(C)C1CCC21CCC(=O)O1 (stereo not given),0.98,0.67
COC(=O)/C=c1\[nH]c2nnc(C)n2c1=O,0.64,-2.7
O=C(OCC(=O)N1CCN(C(=O)c2ccco2)CC1)c1ccccc1OCc1ccc(Cl)cc1,0.09,-0.04
Cc1nnc(Sc2nc3c(c(=O)[nH]c(=O)n3C)n2Cc2ccccc2)s1,0.02,-1.9
CC1(C)ON(C2CCCCC2)[C@H]2c3nc4ccccc4n3C[C@H]21,0.45,0.73
